# HCMV UL50-53 inh: inhibitors of HCMV UL50-UL53 interaction, biochemical, HTRF. HCMV UL50-UL53 nuclear egress complex (human cytomegalovirus). normalized percent inhibition. inhibition, % (no concentration beside the values). 0.15% of 190,000 active;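 active = both replicates at 50% or more, plus weaker picks with an unusually low signal ratio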;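 also: stock transfer was 100 nL into about 20 µL; 0% = negative control wells and 100% = wells with untagged competitor protein; inactives centre near -12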
# Sa growth 42C: S. aureus growth inhibition at 42 and 30 °C, primary screen, LtaS inhibitor project, RN4220, two temperatures; OD600, 20 h, 42 °C; active compounds read low; relative growth, % (no concentration beside the values); 0.53% of 170,000 active;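 active = growth at 42 °C up to 50% and 20 or more points under that at 30 °C, or under 10% at both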;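 also: 300 nL library stock went into each well; scaled to the means of positive and negative controls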
# GIV Gai3 FP: inhibitors of GIV peptide binding to Galpha-i3, primary screen, biochemical, fluorescence polarization, FITC-GIV GBA peptide, rat Galphai3 | percent of control (FP), % (concentration not given with the values) | Guanine nucleotide-binding protein G(i) subunit alpha-3 (Rattus norvegicus), P08753 | AID 1224905, 2016 | 0.42% of 210,000 active | 90 min; active compounds read low; scaled: aluminum fluoride 0%, vehicle 100%;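 active = replicate mean at 85% of control or lower, very high polarization wells dropped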;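 also: wells of about 15 µL received 100 nL stock; the first replicate is given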
# Target sequence (P08753 whole entry, looked up): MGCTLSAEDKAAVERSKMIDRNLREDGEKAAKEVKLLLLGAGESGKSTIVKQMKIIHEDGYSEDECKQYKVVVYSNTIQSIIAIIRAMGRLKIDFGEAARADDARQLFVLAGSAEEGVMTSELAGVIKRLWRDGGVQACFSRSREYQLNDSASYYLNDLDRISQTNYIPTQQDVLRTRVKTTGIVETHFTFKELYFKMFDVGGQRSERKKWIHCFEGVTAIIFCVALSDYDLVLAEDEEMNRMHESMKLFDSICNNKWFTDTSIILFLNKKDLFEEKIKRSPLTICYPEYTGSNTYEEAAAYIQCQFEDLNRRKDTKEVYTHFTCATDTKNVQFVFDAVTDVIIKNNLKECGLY
# Sa growth 42C second temp: second read-out of Sa growth 42C, no call of its own (marks repeat the call); relative growth, %; measured here: growth at 30 °C;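 optical density after 20 h as mean of two plates; 100% = untreated growth and lower means inhibition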
# Active calls of the source: *; . = no result given. The order is random (roughly 0.83% active in at least one column).
SMILES,HCMV UL50-53 inh,Sa growth 42C,Sa growth 42C second temp,GIV Gai3 FP
COc1ccc2c(C)c(CC(=O)O)c(=O)oc2c1,-5,93,99,96
O=C(O)Cc1csc(-n2cccc2)n1,-11,.,.,99
CC(C)(C)c1csc(-c2ccc(-c3ccccn3)s2)n1,-10,85,67,109
O=C(Cn1ncc2c([nH]c3ccccc32)c1=O)Nc1cc(F)ccc1F,.,114,96,102
Cc1cccc(NC(=O)c2cccc(N3CCCS3(=O)=O)c2)c1,.,102,88,106
COC(=O)C1Cc2c([nH]c3ccccc23)C(C(C)C)N1 (stereo unspecified),-11,80,69,105
COc1ccc(-c2nn(CCCC(=O)N3CCN(c4ccccn4)CC3)c(=O)c3noc(C)c23)cc1,-27,.,.,103
Cc1cccc(Cn2c(SCc3ccc(C(=O)NCCc4ccccc4)cc3)nc3cccnc32)c1,.,128,105,98
CCSc1nnc(C2CCCN(S(C)(=O)=O)C2)n1C(C)C (stereo unspecified),58,108,77,103
Cc1sc(-n2cccc2CNCc2ccccc2Cl)c(C(=O)O)c1C,-32,.,.,106
Cc1sc(-c2noc(C3CCC3)n2)cc1S(=O)(=O)N1CCCC(C(=O)NC2CCCC2)C1 (stereo unspecified),-15,.,.,106
Cc1cc(C(=O)N(C)CC(=O)Nc2ccccc2C(F)(F)F)c(C)o1,5,101,95,.
c1ccc2c(c1)[nH]c1cncnc12,-12,89,77,105
CCOC(=O)N1CCc2c(sc3c2c(=O)n(-c2ccc(CC)cc2)c(=O)n3CC(=O)c2ccc(F)cc2)C1,-24,102,89,105
CC1=C(C#N)c2nc(N)c(C#N)c(C)c2/C1=C\c1ccc(-c2cccc([N+](=O)[O-])c2)o1,-12,.,.,101
CC(C)(C)C(=O)OCN1N=CN(Cc2ccccc2)C=C1SC#N,-17,117,88,.
S=C(NC12CC3CC(CC(C3)C1)C2)N1CCOCC1,-4,87,86,94
O=C(c1cnc2ccc(F)cc2c1Nc1ccccc1)N1CCCCC1,-11,.,.,100
Cc1ccc(-c2n[nH]c(=S)n2CC(=O)O)cc1,-36,101,93,.
Cc1ccc(S(=O)(=O)N(CC(=O)NCc2ccccc2)C(=O)N2CCN(C)CC2)cc1,-12,104,92,106
c1ccc2c(-c3nn4cnnc4s3)c[nH]c2c1,-9,.,.,108
O=C(NCc1cccc(Cl)c1)C1CCCN(c2nc3cccnc3n(Cc3ccccc3)c2=O)C1 (stereo unspecified),-38,.,.,106
Cc1ccc(N2CC(NC(=O)Cc3cccs3)CC2=O)cc1C (stereo unspecified),.,108,82,98
Cc1cc2ncc(-c3ccnc(SCC(=O)c4ccc(Cl)cc4)n3)c(C)n2n1,2,113,93,104
CC(C)(CC(=O)O)Cc1nc2ccccc2c(=O)[nH]1,-26,105,89,104
Cc1[nH]n(-c2ccccc2)c(=O)c1/C=N/N1CCOCC1,-26,93,91,107
COc1cc(C(=O)Nc2ccc3nc(SCc4ccccc4)sc3c2)cc(OC)c1OC,-34,90,84,97
Cc1cc(C(=O)COC(=O)C2=COCCO2)c(C)n1-c1ccccc1,-7,101,96,.
CCC(C)NC(=O)CCCn1c(=O)c2cccn2c2ccccc21 (stereo unspecified),8,97,68,108
CC(C)c1ccc(N=C=S)cc1,-13,114,92,.
CCC(=O)N(/C=C1\Sc2ccccc2C1=O)Cc1ccccc1,-35,.,.,110
NC(=O)Nc1ccc2[nH]ncc2c1,-22,95,86,98
CCc1cc2c(=O)c(-c3nc4ccccc4[nH]3)coc2c(CN2CCC(C)CC2)c1O,-8,121,86,100
O=C(NCCc1nc2ccccc2n1CCOc1ccc(Cl)cc1)C1CCCCC1,2,118,53,106
CCOc1cc(-c2nnc(-c3ccco3)o2)cc(OCC)c1OCC,6,101,103,108
O=C(NCc1ccc(F)cc1)C(=O)NCC(c1ccco1)S(=O)(=O)c1cccs1 (stereo unspecified),.,118,97,103
CC(=O)N1CCCc2cc(S(=O)(=O)N(C)CC(=O)Nc3ccc(C(C)C)cc3)ccc21,.,107,83,106
Cc1nc2sccn2c(=O)c1S(=O)(=O)NCC1CCN(Cc2ccc(Cl)cc2)CC1,-26,102,81,102
CCN(C(=O)CCS(=O)(=O)c1ccc2c(c1)CCN2C(C)=O)c1cccc(C(F)(F)F)c1,-17,95,92,105
CC(C)(C)Nc1nc(Cl)nc(N(C#N)CN2C(=O)c3ccccc3S2(=O)=O)n1,-12,96,88,.
O=C(Nc1ccccc1)Nc1cccc2nsnc12,-64,126,54,107
COc1ccccc1N1CCN(C(=O)CN(c2ccc(Br)cc2)S(=O)(=O)c2ccc(C)cc2)CC1,-14,.,.,101
CCOC(=O)c1sc2ncn(CC(N)=O)c(=O)c2c1C,1,102,95,100
Cc1ccc(C)n1-c1ccc(C(=O)Nc2nccs2)cc1,-2,65,52,.
Cc1cccc(N(C)C(=O)c2cc3c(=O)oc4ccc(C)cc4c3s2)c1,-13,.,.,105
Cc1ccc(NC(=O)C(c2ccccc2)N2CCCN(S(=O)(=O)c3c(C)noc3C)CC2)cc1 (stereo unspecified),-8,114,88,.
CC(=O)Nc1ccc(S(=O)(=O)n2cnc(C)c2)cc1,-6,114,83,100
Cc1ccc2nc(Cn3cc(S(=O)(=O)N4CCCC4)ccc3=O)cn2c1,-10,79,94,.
Cc1csc(N)c1C#N,-15,73,0,106
Cn1cccc1C1Nc2ccccc2NC2=C1C(=O)CC(C)(C)C2 (stereo unspecified),-7,103,103,101
CCN1CCN(C(=O)C(C)Sc2nnc(-c3ccncc3)n2-c2ccccc2C)CC1 (stereo unspecified),-3,89,93,.
O=C1NC(=O)C(CC2CCCN3CCCCC23)C(=O)N1 (stereo unspecified),-5,108,81,.
Cc1ccc(C2C3=C(CC(C)(C)CC3=O)OC3=C2C(=O)CC(C)(C)C3)o1,0,105,93,108
CCOc1ccc(N2CC(NC(=O)CCc3ccccc3)CC2=O)cc1 (stereo unspecified),.,102,87,96
Cc1c(SCCO)c(=O)[nH]c2cc3c(cc12)OCO3,-20,105,95,94
CCOC(=O)c1cc(-c2ccccc2)n(-c2cccc(C(=O)Nc3ccc(F)c(F)c3)c2)c1C,.,106,86,99
COc1cc(OC)cc(C(=O)N2CCC(c3ccncc3)CC2)c1,.,101,88,100
CCSC1=NSC2=NC(=O)/C(=C\c3cccnc3)C(=N)N12,-17,83,60,132
O=C(O)CCNc1cc(Cl)ccc1Oc1ccc(Cl)cc1,.,82,47,96
Cc1ccc(-n2nc(C(=O)N3CCN(c4cc(Cl)ccc4C)CC3)c3c4ccccc4n(C)c3c2=O)cc1,-6,103,91,100

# Next section.
SMILES,HCMV UL50-53 inh,Sa growth 42C,Sa growth 42C second temp,GIV Gai3 FP
COc1ccc(-c2[nH]c(-c3ccc(F)cc3)nc2SCC(=O)Nc2ccc(OC)c(OC)c2)cc1,2,110,80,105
Cc1ccc(C)c(C(=O)Cn2nc3n(C(C)C)c(=O)c4ccc(C(=O)NC5CCCC5)cc4n3c2=O)c1,-20,.,.,107
CCOC(=O)c1csc(-n2cccc2)n1,5,110,51,106
CCOCCOCCOCCOCCOCCOCCOCCOCCOCCO (tested in a mixture with another compound),-56,83,88,.
COC(=O)c1ccc2c(=O)[nH]c(COC(=O)/C=C/c3ccc(S(=O)(=O)NCc4ccco4)cc3)nc2c1,-2,69,63,.
CC(C)Oc1ccc(CNC(=O)CN2C(=O)c3cccnc3Oc3ccc(Cl)cc32)cc1,.,79,86,110
O=C(Cn1cc(S(=O)(=O)Cc2cccc(Cl)c2)c2ccccc21)NCc1ccccc1Cl,.,100,90,100
CCn1c(SCCc2ccccc2)nnc1-c1nnc(SCCc2ccccc2)n1CC,34,101,93,108
O=C(C1CCCN1S(=O)(=O)c1cccc2nsnc12)N1CCCCCC1 (stereo unspecified),.,84,85,101
COc1cccc(-c2ccc(SCC(=O)N3CCOCC3)nn2)c1,-34,105,87,99
CCN(C(=O)C1CCCN(c2ncnc3c2nc2n3CCCCC2)C1)c1cccc(C)c1 (stereo unspecified),.,112,85,102
O=C1CC(c2ccc(Cl)cc2)CC2=C1C(c1cc3c(cc1Br)OCO3)Nc1ccccc1N2 (stereo unspecified),3,.,.,107

# Looked up above:
# Cc1ccc(S(=O)(=O)N(CC(=O)NCc2ccccc2)C(=O)N2CCN(C)CC2)cc1 in GIV Gai3 FP is listed with 106
# Cc1c(SCCO)c(=O)[nH]c2cc3c(cc12)OCO3 in Sa growth 42C second temp is listed with 95
# CC(C)(CC(=O)O)Cc1nc2ccccc2c(=O)[nH]1 in Sa growth 42C second temp is listed with 89
# CCn1c(SCCc2ccccc2)nnc1-c1nnc(SCCc2ccccc2)n1CC in HCMV UL50-53 inh is listed with 34
# Cc1ccc(-c2n[nH]c(=S)n2CC(=O)O)cc1 in Sa growth 42C second temp is listed with 93
# Cn1cccc1C1Nc2ccccc2NC2=C1C(=O)CC(C)(C)C2 (stereo unspecified) in Sa growth 42C second temp is listed with 103

# Next part:
SMILES,HCMV UL50-53 inh,Sa growth 42C,Sa growth 42C second temp,GIV Gai3 FP
Cc1ccc(CCNC(=O)c2cc3c(=O)n(C)c4ccccc4c3n2C)cc1,-35,116,93,104
CC(C)N(Cc1ccccc1)S(=O)(=O)c1ccc2ccccc2c1,-32,99,82,102
CCN1C(=O)/C(=C\c2ccc(-c3ccc(C(=O)OC)cc3)o2)N(CC)C1=S,-2,.,.,101
CCOC(=O)c1cnc(SCC(=O)OCCCn2c(=O)[nH]c3ccccc32)nc1N,2,91,90,.
CCOC(=O)c1ccc2c(c1)NC(CC(=O)Nc1ccccc1C)C(=O)N2CC (stereo unspecified),4,96,87,.
CCOc1ccc(-c2cc(C(=O)N3CCN(C(=O)c4ccco4)CC3)[nH]n2)cc1,-19,90,66,109
O=S(=O)(c1cc(C(F)(F)F)ccn1)c1cccs1,-7,98,82,99
COc1cc(Cl)c(C)cc1NC(=O)CCc1nc2cccnc2n1Cc1cccs1,2,111,96,137
CCCc1cc(N)on1,-6,75,90,.
CC(C)c1cc(NC(=O)C(C)(C)C)cc(C(C)C)c1O,-2,101,108,101
COCCCn1c(C)cc(C(=O)COC(=O)C23CC4CC(CC(O)(C4)C2)C3)c1C,0,107,96,.
Cn1nc(NC(=O)C(F)(F)F)c(-c2ccccc2)c1C(F)(F)F,-3,129,36,98
O=C(CS(=O)(=O)c1nc(-c2ccc(Cl)cc2)cn1-c1ccccc1)Nc1cccc(Cl)c1,9,104,86,101
CCc1ccc(S(=O)(=O)c2cn(Cc3ccc(OC)cc3)c3cc(OC)c(OC)cc3c2=O)cc1,-18,108,82,105
Nc1ccc(CC(CCC(=O)O)C(=O)O)cc1 (stereo unspecified),-10,100,89,.
CCN(CC)CC(=O)OCC1C(C)C=C(C)CC1C (stereo unspecified),.,77,96,99
COc1ccc(C)cc1NC(=O)CCn1nc(C)cc1C,.,119,98,108
N/C(Cc1cccs1)=N\OC(=O)c1ccccc1,-16,113,86,105
CC1Cc2ccccc2N1C(=O)CSc1nc(N)cc(N)n1 (stereo unspecified),-12,113,82,97
CC(C)Sc1nnc2oc3ccc(S(=O)(=O)N(C)C)cc3n12,-8,87,93,.
CC(=O)N1c2ccccc2Oc2cc3ccccc3cc21,-8,64,79,108
Cc1nc(-c2ccccc2)cc(=O)[nH]1,3,89,96,107
CS(=O)(=O)N1CCc2cc(C(=O)N3CCCc4ccccc43)ccc21,-19,92,88,104
COCCCn1cnnc1SCC(=O)Nc1ccc(C)c(C)c1,-22,89,88,.

# 2 entries picked at random from those above:
SMILES,HCMV UL50-53 inh,Sa growth 42C,Sa growth 42C second temp,GIV Gai3 FP
O=C(CS(=O)(=O)c1nc(-c2ccc(Cl)cc2)cn1-c1ccccc1)Nc1cccc(Cl)c1,9,104,86,101
CC(C)Sc1nnc2oc3ccc(S(=O)(=O)N(C)C)cc3n12,-8,87,93,.

# Next section.
SMILES,HCMV UL50-53 inh,Sa growth 42C,Sa growth 42C second temp,GIV Gai3 FP
Cc1ccc(C(=O)COC(=O)c2ccc3nc(C)c(C)nc3c2)cc1,-22,111,85,101
COc1ccccc1NC(=O)N1CCC(n2cnc3cccnc32)CC1,5,.,.,96
Cc1ccc(OCC(=O)Nc2ccc3c(c2)OCO3)c(C(=O)c2cc(C#N)c(=O)n(C3CC3)c2)c1,-6,92,97,.
C=CCNC(=O)c1c(N)n(-c2ccc(C)cc2)c2nc3ccccc3nc12,-15,88,97,.
O=C(CN1c2ccc(F)cc2-c2ccccc2S1(=O)=O)Nc1ccccc1Br,-21,.,.,106
c1ccc(-n2ncc3c(N4CCc5ccccc54)ncnc32)cc1,41,115,103,109
CCOC(=O)Cn1cnc2scc(-c3ccccc3)c2c1=O,-9,117,72,107
O=C(Cn1c(-c2cccs2)cc2cc(Cl)ccc21)N1CCN(c2ccccc2F)CC1,.,101,91,105
COc1ccc(NC(=O)c2cc3c(=O)n(Cc4cccnc4)ccc3nc2C)cc1OC,.,104,89,102
CCc1ccc2c(c1)NC(c1ccccc1)=NC(c1ccc(F)cc1)=N2,-3,.,.,101
Cn1c(=O)c(-c2noc(C(=O)N3CCc4ccccc4C3)n2)nn(-c2ccc(F)cc2)c1=O,-36,.,.,95

# Screening results: PubChem, ICCB-Longwood Screening Facility, Harvard Medical School
